Screening data (PubChem BioAssay)
HPGD block = inhibitors of human 15-hydroxyprostaglandin dehydrogenase (HPGD). purified HPGD, NADH fluorescence kinetic, PGE2 substrate. AID 894. P15428. Potency, µM, for the others: top-dose activity change, negative = inhibition, usual class: inhibitors. hit rate 4.3% among 150,000; active = well fitted inhibition curve with a large enough effect (not every such curve was filed as active); inconclusive = small, poorly fitted or top-dose-only effect, or another doubt; inactive = no such curve, though single readings can be large or run the other way;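 note: top concentration of the series not given in the record; plate controls included wells without enzyme; inactives centre near -10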
Target sequence (P15428 whole entry, looked up): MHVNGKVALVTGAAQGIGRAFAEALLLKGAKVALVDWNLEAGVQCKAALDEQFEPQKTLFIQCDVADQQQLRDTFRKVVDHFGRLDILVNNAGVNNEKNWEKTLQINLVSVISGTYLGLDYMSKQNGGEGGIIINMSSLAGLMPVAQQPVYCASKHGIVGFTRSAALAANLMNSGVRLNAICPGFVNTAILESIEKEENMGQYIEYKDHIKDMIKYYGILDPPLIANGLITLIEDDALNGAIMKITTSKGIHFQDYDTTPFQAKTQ
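NADH formation kinetics: reaction with 30 uM PGE2 and 1 mM NAD+ (final), 20 nM enzyme, Tris-HCl pH 8 with Tween 20, after 15 min compound preincubation at room temperature. Fluorescence change, last versus first of five reads.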
An asterisk follows results filed as active; ? = inconclusive; & = joins results of further samples. % is set by controls: 0 for no effect and ±100 for the full control effect; potency is the fitted concentration of half-maximal effect.

SMILES | HPGD block
COc1cccc(C(=O)CN(C(=O)c2ccc(Cl)c(Cl)c2)N2C(=O)c3ccccc3C2=O)c1 | -8.2%
CC(C)C(c1nnnn1Cc1ccccc1)N1CCc2ccccc2C1 (centres undefined) | -16.4%
CC(C)(C)OC(=O)NCCCCC1=CC2=CC(=O)C(C)(OC(=O)CCc3ccccc3)C(=O)C2=CO1 (centres undefined) | -10.7%
CC(=O)Nc1cc(-c2nn(CC(=O)N3CCCCC3)c(=O)c3ccccc23)ccc1N1CCOCC1 | -3.7%
O=C(CN1CCCCC1)N1c2ccccc2Sc2ccc(C(F)(F)F)cc21 | -0.6%
O=C(Nc1ccccc1C(=O)NCCCn1ccnc1)c1ccc(Cl)cc1Cl | -7.7%
CCOc1ccc(NC(=O)C2CCCN(C(=O)NCc3ccccc3)C2)cc1 (centres undefined) | -4.8%
CCOC(=O)C1=NN(c2ccccc2)C(=O)/C1=C\c1ccc(N(C)C)cc1 | 12.6µM*
CCc1cccc(CC)c1NC(=O)COC(=O)Cc1ccsc1 | -6.2%
COc1ccc(Nc2cc(C)nc3nc(C)nn23)cc1Cl | -26.6%
c1ccc(SCc2nc(-c3cccnc3)no2)cc1 | -11.3%
COc1ccc(Nc2nc(-c3cccs3)nc3ccccc23)c(OC)c1 | -27.5%
CC1CCN(c2ccc(C(=O)Nc3ccc4c(c3)OCO4)cc2[N+](=O)[O-])CC1 | -7.6%
COc1ccc(-n2cnnc2SCC(=O)NC2CCCc3ccccc32)cc1 (centres undefined) | -3.7%
CCCCN(C)C(=O)C1CCN(Cc2ccc(OCc3ccccc3)cc2)CC1 | -6.1%
Cc1cnc(NC(=O)c2sc3ccccc3c2Cl)s1 | -18.9%
CCSc1nnc(-c2ccc(S(=O)(=O)NCc3cccs3)cc2)o1 | -16.8%
CCCC(=O)Nc1ccc2nc(SCC(=O)Nc3ccc(N4CCOCC4)c(Cl)c3)sc2c1 | -21.1%
CCCn1c(CCC(=O)Nc2ccccc2Cc2ccccc2)nc2cc(S(=O)(=O)N3CCOCC3)ccc21 | 0.9%
CCC(C)(C)n1nnnc1C(c1ccc(OC)c(OC)c1)N1CCN(c2ccc(OC)cc2)CC1 (centres undefined) | -5.9%
CC(C)OC(=O)CC12CN3CC(CC(=O)OC(C)C)(CN(C1)C(=O)c1ccccc1C3=O)C2=O | 0.1%
CCCCN1C(=S)SC(C)(C)C1/[N+]([O-])=C/c1cccnc1 (centres undefined) | 0.4%
CCOC(=O)CSc1nnc(CCc2nc3ccccc3[nH]2)n1C | 0.3%
Cc1n[nH]c(=O)n1-c1ccc(Oc2ccccc2)cc1 | -1.0%
CNC(=O)c1nnc(Cc2ccc(Cl)cc2)o1 | -5.3%

Next part
SMILES | HPGD block
COc1ccccc1OCCCOc1c(Cl)cc(C)cc1Cl | 14.1µM*
CCC(c1nnnn1Cc1ccco1)N(Cc1ccccc1OC)Cc1cc2cc(C)ccc2[nH]c1=O (centres undefined) | -14.5%
CN(C)c1ccc(C(=O)N2CC(=O)N(CCc3ccccc3)C(=O)C2)cc1 | ?
COc1ccc(-n2c(SCC(=O)Nc3ccccc3)nnc2-c2ccc(NS(=O)(=O)c3ccc(C)cc3)cc2)cc1 | -2.5%
COCCN(CCOC)Cc1c(C)[nH]c2c(C)c(C)ccc2c1=O | -23.4%
CCN(CC)S(=O)(=O)c1cccc(-c2nnc(SCCCC(=O)c3ccc(F)cc3)o2)c1 | ?
CCn1c(=O)cc(SCC(=O)Nc2ccc(OC)c(OC)c2)c2ccccc21 | -5.3%
Cc1ccc(C2CC(=O)Oc3cc(C)c(Cl)c(C)c32)cc1 (centres undefined) | -16.0%
O=C(Nc1nc2nc(-c3ccccc3)cc(-c3ccccc3)n2n1)c1ccco1 | ?
O=C(CCC(=O)N/N=C/c1c[nH]c2ccccc12)NCc1ccccc1 | -3.0%
C/C=C/COc1nc2c(c(=O)n(C)c(=O)n2C)n1C | -9.5%
CCC(CO)n1c(SCc2cc(=O)oc3cc(C)ccc23)nc2ccccc2c1=O (centres undefined) | -12.3%
CCC(NC(=O)c1cccc(Cn2cc([N+](=O)[O-])cn2)c1)c1ccc(C(C)C)cc1 (centres undefined) | -22.5%
O=C(NC1=NCCS1)c1cccc(NC(=O)c2ccco2)c1 | -17.1%
COc1ccc(OC)c(S(=O)(=O)Nc2c(F)cccc2F)c1 | -13.2%
O=C(CCSCCc1ccccn1)Nc1ccc(Br)cn1 | -10.5%
O=S(=O)(c1ccccc1)c1nc(Nc2cccc(O)c2)sc1Cl | -15.5%
O=C(CCC(=O)OCC(=O)c1ccc(F)cc1)NC1CCCCC1 | -24.3%
CN(C(=O)CSc1nc(N)nn1-c1ccccc1)c1ccccc1 | -1.5%
COc1cccc(NC(=O)CSc2nnc(Cn3c(=O)sc4ccccc43)n2C)c1 | -6.8%
Cc1cc(C)c2sc(NNC(=O)C3COc4ccccc4O3)nc2c1 (centres undefined) | -16.9%
COc1ccc(OC)c(NC(=O)c2ccc(NC(C)=O)cc2)c1 | -4.1%
Cn1c(=O)cc(OCC(=O)NCc2cccnc2)c2ccccc21 | -8.5%
O=c1c2ccc(Cl)cc2nc(-c2cccc(C(F)(F)F)c2)n1O | -11.4%
CCOc1ccc(-c2noc(CCCC(N)=O)n2)cc1OC | -16.0%

As a working copy, 5 of the compounds above:
SMILES | HPGD block
COc1ccc(-n2cnnc2SCC(=O)NC2CCCc3ccccc32)cc1 (centres undefined) | -3.7%
CCCCN(C)C(=O)C1CCN(Cc2ccc(OCc3ccccc3)cc2)CC1 | -6.1%
Cc1cnc(NC(=O)c2sc3ccccc3c2Cl)s1 | -18.9%
CCSc1nnc(-c2ccc(S(=O)(=O)NCc3cccs3)cc2)o1 | -16.8%
CCCC(=O)Nc1ccc2nc(SCC(=O)Nc3ccc(N4CCOCC4)c(Cl)c3)sc2c1 | -21.1%

The results go on.
SMILES | HPGD block
O=C(CSc1nnc(-c2ccccc2)o1)Oc1ccc(Br)cc1 | -27.1%
CCOC(=O)c1c(CN2CCOCC2)n(-c2ccccc2)c2ccc(O)cc12 | -1.8%
O=S(=O)(NCCc1csc(-c2ccccc2)n1)c1ccc2c(c1)OCCO2 | -10.9%
CCOCCCNC(=O)c1ccc2c(c1)OCO2 | 14.1µM*
COc1cccc(C(O)c2nc3ccccc3n2C(C)C)c1 (centres undefined) | -0.4%
O=c1ccc(/C=C/c2ccccc2)nn1Cc1ccc(Cl)cc1Cl | ?
CCOC(=O)c1sc2nc(NC(=O)C3CC3)sc2c1C | ?
CN(C)S(=O)(=O)c1cccc(NC(=O)Cn2cnc3ccccc3c2=O)c1 | -18.9%
Cc1nnc(Sc2nc3c(c(=O)n(C)c(=O)n3C)n2Cc2ccc(Cl)cc2)s1 | -10.0%
Cc1cccc(N2C(=O)C(Cc3ccccc3)NC2=S)c1 (centres undefined) | -4.8%
Cn1cnnc1SC(C(=O)Nc1cc(Cl)cc(Cl)c1)c1ccccc1 (centres undefined) | -9.5%
CCCc1cc(=O)[nH]c(Nc2cc(OC)ccc2OC)n1 | -1.1%
CC(C)c1nc(SCC(=O)c2ccccc2)c2c(=O)n(C)c(=O)n(C)c2n1 | -9.7%
CCNS(=O)(=O)c1ccc(OCCNS(C)(=O)=O)cc1 | -7.2%
CCC1(C)Cc2c(sc3c2c(=O)n(-c2ccccc2)c(=O)n3C)CO1 (centres undefined) | -3.9%
CCN(CC)c1nc(C)c(C(C)=O)cc1C#N | -25.0%
O=C(NCc1ccco1)c1scc2c1OCCO2 | -29.4%
N#Cc1nc(COc2ccccc2)oc1N1CCN(c2cccc(Cl)c2)CC1 | -26.4%
Cc1ccc(C(=O)CCC(=O)O)cc1 | -7.0%
O=c1[nH]c(-c2ccccc2)c(-c2ccccc2)[nH]1 | ?
c1ccc(CSc2nnc(-c3sccc3-n3cccc3)o2)cc1 | -30.3%
O=C(Nc1scc(-c2ccccc2)c1C(=O)O)c1ccco1 | -24.5%
O=C(CSc1nnc(-c2cccnc2)o1)OC1CCCCC1 | -14.1%
COc1ccccc1/C=N/N(C(C)=O)c1nc(-c2ccc(F)cc2)cs1 | -0.1%
Cc1nc(C)c(C(=O)N(c2ccc(C)c(C)c2)C(C(=O)NCc2ccco2)c2ccccc2)s1 (centres undefined) | -9.8%

Arranged by length of the SMILES (falling): some entries from above
SMILES | HPGD block
CC(C)c1nc(SCC(=O)c2ccccc2)c2c(=O)n(C)c(=O)n(C)c2n1 | -9.7%
COc1ccccc1/C=N/N(C(C)=O)c1nc(-c2ccc(F)cc2)cs1 | -0.1%
O=c1[nH]c(-c2ccccc2)c(-c2ccccc2)[nH]1 | ?
O=C(NCc1ccco1)c1scc2c1OCCO2 | -29.4%

Carrying on:
SMILES | HPGD block
COC(=O)c1ccc(COc2nc(C)cc(C)c2C#N)o1 | -8.0%
COc1cc(C(=O)N/N=C/c2sc(=O)n(-c3ccccc3)c2Cl)cc(OC)c1OC | -0.6%
CCS(=O)(=O)NC(C)C(c1cccs1)N1CCN(c2ccc(F)cc2)CC1 (centres undefined) | -5.2%
COC(=O)c1sc2nc3c(c(-c4cccs4)c2c1N)CCCC3 | ?
Nc1ccn([C@H]2CC[C@@H](CO)O2)c(=O)n1 | 0.7%&-12.0%&-4.3%&-3.0%
O=c1c2ccsc2ncn1Cc1cccc(C(F)(F)F)c1 | -1.3%
COc1ccc(C(=O)O)cc1S(=O)(=O)Nc1cccc(C(F)(F)F)c1 | -6.6%
COCC(=O)Nc1c(I)c(C(=O)NC[C@@H](O)CO)c(I)c(C(=O)N(C)C[C@@H](O)CO)c1I | -4.9%
O=C(NC1CCCC1)c1ccc(CNc2c(N3CCOCC3)c(=O)c2=O)cc1 | 7.94µM*
Cc1cc(C)n(CC(=O)N/N=C/c2cccs2)n1 | ?
Cc1cc(-c2ccco2)c(C#N)c2nc3ccccc3n12 | -18.2%
O=C(O)c1cc(CN2CCOCC2)oc1-c1ccccc1 | -16.6%
COC(=O)c1cc2sc(Cl)cc2n1CC(=O)NCCC(C)C | -5.9%
O=C(Nc1ccc(F)cc1)c1nc[nH]c1C(=O)Nc1ccccc1[N+](=O)[O-] | -30.2%
O=C(c1cccc(F)c1)N1CCC2(CC1)CN(Cc1ccccc1)C2 | -3.5%
CCOC(=O)c1c(NC(=O)Cc2cccs2)sc(C(=O)N2CCCCC2)c1C | 7.08µM*
COCC(=O)N1CCC[C@@]2(CCN(c3ccncc3)C2)C1 | -2.7%
CCC(Sc1nc2sc(C(=O)OC)c(C)c2c(=O)n1N)C(=O)N(CC)CC (centres undefined) | ?
COc1ccc(CCNc2nc(=O)[nH]nc2C)cc1OC | -8.2%
CCCc1nc(SCc2ccc(Cl)cc2Cl)n[nH]1 | 15.8µM*
COc1ccc(C)cc1NC(=O)CC(O)(C(F)(F)F)C(F)(F)F | -5.1%
FC(F)(F)C(Cl)Br (centres undefined) | -29.5%
CC1CCN(CC(=O)N2CC(=O)Nc3ccccc32)CC1 | -9.3%
Cc1cc(N2CCCC2)ccc1/C=N/n1cnnc1 | ?
CC(C)n1c(Sc2nccn2C)nc2c1c(=O)n(C)c(=O)n2C | -12.5%

Next results
SMILES | HPGD block
CCc1[nH]nc2c1C1(CCOC1C)C(C#N)=C(N)O2 (centres undefined) | -7.8%
c1ccc2c(c1)CCN(c1nc(CN3CCOCC3)nc3sc4c(c13)CCCC4)C2 | -4.1%
O=C(CCN1CCc2ccccc2C(c2ccccc2)C1)c1ccc2c(c1)OCCO2 (centres undefined) | -17.1%
CC(C)OC(=O)c1cc(-c2ccc(C=O)o2)ccc1Cl | -27.8%
C/C(=C1\SC(N2CCOCC2)=NC1=O)c1ccc(C)cc1 | -19.0%
Cc1ccc(OCc2nnc(SCC(=O)Nc3cccc4ccccc34)n2-c2ccccc2)cc1 | -11.4%
O=C(Nc1cccc(Cl)c1)Nc1ccccc1C(=O)NCc1ccco1 | ?
CCC(C)(C)C1CCc2c(sc(N)c2C(N)=O)C1 (centres undefined) | -4.9%
Cc1ccc(NC(=O)Cc2nn(C)c(=O)c3ccccc23)cc1F | 0.1%
CCc1ccc(NC2=CC(=O)CC(c3ccco3)C2)cc1 (centres undefined) | -13.0%
CN(C)CCCN1c2ccc3ccccc3c2Sc2cccc(Cl)c21 | -2.2%
COc1ccccc1Nc1nc(N)nc(-c2cc3ccccc3o2)n1 | ?
CCCOC(=O)C1=C(C)NC2=C(C(=O)CCC2)C1c1cccc(OC)c1OC (centres undefined) | ?
Cc1ccc(-c2nnc(Nc3ccccc3)c3ccccc23)cc1S(=O)(=O)NCC1CCCO1 (centres undefined) | -18.2%
CC1=NN(c2ccccc2)C(=O)/C1=C\C=C1\N(C)c2ccccc2C1(C)C | -12.7%
COc1ccc(NC(=O)CSc2nc(N)c(-c3ccccc3)c(=O)[nH]2)cc1 | -13.6%
CC(N)C12CC3CC(C1)CC(C(C)N)(C3)C2 (centres undefined) | -10.5%
COc1cccc(CNC(=O)C2CCN(S(=O)(=O)c3cccc4cccnc34)CC2)c1 | -8.0%
Cc1cc2oc(=O)cc(CN3CCN(S(=O)(=O)/C=C/c4ccccc4)CC3)c2cc1C | -20.9%
Cc1cc(NC(=O)CSc2nc3c(c(=O)n(C)c(=O)n3C)n2C(C)C)no1 | -5.3%
CS(=O)(=O)c1ccc2nc(NC(=O)c3cc4ccccc4o3)sc2c1 | ?
O=S(=O)(NCC1CC1)c1cccc(S(=O)(=O)N2CCCC2)c1 | -2.4%
CC(C)Oc1ccc(C(=O)Nc2nnc(SCC(=O)N3CCOCC3)s2)cc1 | -2.1%
C=CCn1c(COc2ccccc2)nnc1SCc1ccc(C#N)cc1 | -6.2%
Cc1ccc(C)c(CN2CCNC2=O)c1 | -13.0%
C1=Nc2ccccc2CN1c1ccccc1 | ?
O=C(c1csnn1)N1CCC2(CCCN(c3ccc(-c4ccccc4)cc3)C2)CC1 | -12.7%
Cc1nc2scc(-c3ccccc3)c2c(=O)n1N | -15.4%

The list is partial; count on the stated rates, not on these rows.
